# High-throughput results: PubChem BioAssay, National Center for Advancing Translational Sciences (NCATS)
# Rango release inh: inhibition of RanGTP-driven Rango-importin beta dissociation | O95149+P62826 | Biochemical FRET Rango-importin beta, RanGTP-induced dissociation | Potency, µM (series often up to 46.1 µM), for the others: at the highest dose activity change, negative = inhibition | hit rate 0.071% among 340,000 | AID 540253; active means falling FRET ratio curve, often poorly fitted, with flat reads before Ran was added; inconclusive means other falling curves, or compound fluorescence or quenching; inactive means flat or rising ratio curve;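 note: potency is the fitted concentration of half-maximal effect; % of control where 0% means no effect; nearly all actives have a fitted effect of over 45% in size; -100% = wells without RanGTP and RCC1; the record marks most hits as doubtful in a second field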
#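 Compounds sat 5 min at room temperature with 0.1 uM Rango biosensor plus 0.25 uM importin beta, then FRET pre-read. RanGTP-RCC1 (0.6 uM Ran, 2mM GTP, 0.2 uM RCC1) added for 45 min, and the CFP/YFP post-read measured blocked complex dissociation.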
# miR-21 reporter: miR-21 reporter, rising signal | HeLa miR-21 FLuc reporter, luciferase, 48 h | Potency, µM (titrated, usually from 38.3 µM), for inactives: at the top dose reporter change, positive = more light | 340,000 tested, under 10 active | AID 2288; active = well fitted rising curve with a large enough effect; inconclusive = small, poorly fitted or top-dose-only effect; inactive = no such curve, though single readings can be large or run the other way;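 note: % of control where 0% means no effect; miR-21 action dims this reporter so a rising signal means less miR-21 action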
#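 Luminescence from a firefly luciferase reporter carrying a miR-21 binding site downstream, stably expressed under a CMV promoter in HeLa cells that make miR-21 endogenously, reports miRNA modulation after 48 h compound exposure up to approximately 40uM final.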
# Rango-impB inh: prevents formation of the Rango-importin beta complex; Q14974; Rango CFP/YFP FRET sensor + importin beta, 45 min; Potency, µM (doses to about 92.2 µM), for the others: at the top dose inhibition of complex formation; hit rate 0.031% among 340,000; AID 540263; active = rising FRET ratio curve, often small or poorly fitted; inconclusive = mostly compound fluorescence or quenching in the first reads; inactive = flat curves in all reads;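 note: potency is the fitted concentration of half-maximal effect; 0% = DMSO wells and 100% = buffer wells lacking importin beta; nearly all actives have a fitted effect of over 15% in size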
#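 Inhibition scored from the CFP 486 nm/YFP 530 nm FRET ratio 45 min after adding 0.125 microM importin beta to 50 nM Rango biosensor preincubated 5 min with compound (room temperature, PBS with DTT, Tween-20, BSA). No-importin wells as positive control.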
# GLA inh pH 4.5: blocks human alpha-galactosidase A at pH 4.5 | AID 1467 | 230,000 tested, under 10 active | activity change, negative = inhibition, % at 105 µM | purified enzyme, 4-MU-alpha-Gal fluorescence, pH 4.5; inconclusive = small, poorly fitted or top-dose-only inhibition, or a rising curve; inactive = flat fitted curve, though single readings scatter; no compound was filed as active;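 note: 0% = full activity with enzyme and -100% = basal without enzyme; dose as in the result columns while the protocol names 77 µM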
# Target sequence (P06280 whole entry, looked up): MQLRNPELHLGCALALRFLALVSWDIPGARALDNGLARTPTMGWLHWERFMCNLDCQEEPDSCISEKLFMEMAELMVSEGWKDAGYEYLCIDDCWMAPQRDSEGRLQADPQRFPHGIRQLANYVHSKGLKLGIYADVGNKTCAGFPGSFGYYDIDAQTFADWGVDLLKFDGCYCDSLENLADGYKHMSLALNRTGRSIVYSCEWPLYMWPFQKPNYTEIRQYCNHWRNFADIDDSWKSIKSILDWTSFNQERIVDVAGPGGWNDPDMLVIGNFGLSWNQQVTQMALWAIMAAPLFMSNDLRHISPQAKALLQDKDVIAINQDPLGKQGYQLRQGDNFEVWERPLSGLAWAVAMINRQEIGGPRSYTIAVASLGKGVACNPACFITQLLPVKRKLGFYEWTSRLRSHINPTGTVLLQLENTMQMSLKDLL
# Starred values were filed as active, the others as inactive; ? = inconclusive; nt = no result given; & = joins results of further samples. Some of the compounds tested (hit frequency here may not be typical).
miR-21 reporter | GLA inh pH 4.5 | Rango-impB inh | Rango release inh | molecule
3% | nt | -0.3% | -12% | O=C(CCCC1=NS(=O)(=O)c2ccccc2N1)N1CCN(c2ccc([N+](=O)[O-])cc2)CC1
-5% | nt | -1.2% | 6% | Cc1ccc(C)c(NC(=S)N2CCC(NC(=O)c3ccccc3)CC2)c1
-5% | -2 | 0.7% | -2% | O=C(CN1C(=O)COc2ccccc21)N1CCc2ccccc2C1
nt | nt | -0.9% | -15% | CCOC(=O)c1ccc(S(=O)(=O)N2CCN(C/C=C/c3ccccc3)CC2)cc1
1% | -21 | ? | 20% | O=S(=O)(c1cccc(S(=O)(=O)N2CCCC2)c1)c1cccc(S(=O)(=O)N2CCCC2)c1
1% | -8 | 0.3% | -9% | CCn1c(CCCOc2ccc(Cl)cc2Cl)nnc1SCC(=O)Nc1cc(F)ccc1C
-26% | -5 | 3.0% | -2% | Clc1ccsc1-c1ccnc(-n2cccc2)n1
5% | -4 | 0.7% | -9% | CCCCN(C(=O)CSc1nnnn1C)c1c(N)n(Cc2ccccc2)c(=O)[nH]c1=O
-1% | -6 | 3.5% | -1% | COCCn1c(Cc2ccccc2)nnc1SCC(=O)NC(C)C
-8% | 2 | -0.1% | -6% | O=C(NCc1ccccc1)Nc1cccc2ccccc12
-67% | 5 | 1.9% | 1% | CC1(C(=O)OCc2cc(=O)n3cc(Br)ccc3n2)CC1(Cl)Cl (stereo unspecified)
-1% | 11 | -3.6% | -9% | CC(C)N1CCN(Cc2cccn2-c2ccccn2)CC1CCO (stereo unspecified)
-3% | 5 | 2.4% | 9% | COCCNC(=O)NC(=O)CSc1nc(C)c(C)c(C)n1
-4% | -1 | 3.0% | 27% | O=C(O)c1nc(-c2ccccc2)n(-c2ccc(Cl)cc2)n1
8% | 3 | 0.7% | 11% | CCO[C@H]1OC(C(=O)NC2CC2)=C[C@@H](c2ccc3c(c2)OCO3)[C@@H]1CCCO
-8% | 1 | -2.7% | -8% | CC(C)CCC1=NN(C(=O)c2ccco2)C(O)(C(F)(F)F)C1 (stereo unspecified)
3% | 3 | ? | -10% | Cc1ccc(C(=O)N/C(=C\c2ccc([N+](=O)[O-])cc2)C(=O)NCCc2ccccc2)cc1
-2% | nt | -0.9% | -6% | CC(=O)Nc1ccc(S(=O)(=O)N2CCC(C(=O)NCc3ccncc3)CC2)cc1
nt | nt | -0.2% | 3% | NC(=O)c1cnccc1C=Cc1ccccc1
0% | -1 | -3.5% | 4% | CCOC(=O)c1ccc(NC(=O)Nc2ccc(F)cc2)cc1
5% | 11 | 0.2% | 0% | Cc1cc(C)c2c(=O)[nH]c(SCC(=O)Nc3ccccc3)nc2n1
1% | nt | 3.8% | -4% | CC1CCCC(C)N1/N=C/c1ccccc1Br (stereo unspecified)
-16% | -16 | 0.4% | 15% | CCC(=O)Nc1cccc(NC(=S)NC(=O)c2cccc(C)c2)c1
0% | nt | -2.7% | 1% | CNC(=O)c1cc(C(=O)c2ccc(Cl)cc2)c(Br)[nH]1

# Whole records from above.
# O=C(O)c1nc(-c2ccccc2)n(-c2ccc(Cl)cc2)n1 across the screens: miR-21 reporter: -4%; GLA inh pH 4.5: -1; Rango-impB inh: 3.0%; Rango release inh: 27%
# Cc1ccc(C(=O)N/C(=C\c2ccc([N+](=O)[O-])cc2)C(=O)NCCc2ccccc2)cc1 across the screens: miR-21 reporter: 3%; GLA inh pH 4.5: 3; Rango-impB inh: ?; Rango release inh: -10%

# The list goes on:
miR-21 reporter | GLA inh pH 4.5 | Rango-impB inh | Rango release inh | molecule
0% | 1 | -2.4% | 2% | Cc1ccc(NC(=O)c2cc(N3C(=O)CCC3=O)ccc2N2CCOCC2)cc1
-14% | 3 | 5.4% | 16% | COc1ccc(OCC(=O)N/N=c2\oc3c(OC)cccc3cc2C(N)=O)cc1
1% | 0 | 3.2% | -9% | O=C(CCCn1c(=O)[nH]c2cc(Cl)ccc2c1=O)NCC1CCCO1 (stereo unspecified)
1% | -1 | 1.4% | 7% | Cc1cccc(C(=O)N2CCN=C2SCc2ccc([N+](=O)[O-])cc2)c1
-1% | 0 | 4.2% | 40% | O=C(O)CC(NC(=O)Cc1ccc([N+](=O)[O-])cc1)c1ccc2c(c1)OCO2 (stereo unspecified)
nt | nt | ? | 7% | O=C(O)C1OCC2(CO1)COC(C(=O)O)OC2 (stereo unspecified)
0% | nt | -0.5% | 15% | CCc1ccccc1NC(=O)CCC(=O)c1cccs1
nt | nt | -1.5% | -3% | CC(OC(=O)Cn1cnc2ccccc2c1=O)C(=O)NCc1ccccc1 (stereo unspecified)
-3% | nt | 4.0% | 6% | O=S(=O)(Nc1ccon1)c1ccc(F)c(F)c1
7% | 5 | -4.2% | -1% | Fc1ccc(C2c3[nH]c4ccccc4c3CCN2Cc2ccoc2)cc1 (stereo unspecified)
21% | -3 | 2.3% | -1% | COc1ccc(C(=O)N/N=C2\CCS(=O)(=O)c3ccc(F)cc32)cc1OC
20% | 1 | -1.2% | -7% | COC(=O)CCCn1c(C)cc(C(=O)CCl)c1C
nt | nt | 0.1% | -4% | Cc1ccccc1CN1CCN(c2ccc(S(=O)(=O)N3CCCC3)cn2)CC1
-14% | 1 | -0.4% | 0% | CCOC(=O)c1[nH]c(=O)c2ccccc2c1O
-4% | 0 | 7.1% | 1% | Cc1ccc(CSc2nnc(CC(=O)Nc3ccc(C)cc3)n2C)cc1
-4% | -3 | -0.6% | -5% | Cc1cc(Cl)nc(-n2nc(C)cc2C)n1
2% | 9 | -2.3% | 12% | CCOC(=O)c1cnn2c(N)c(C#N)nnc12
-4% | nt | 2.4% | -1% | CN(c1ccc(C(=O)Nc2ccc3c(c2)n(C)c(=O)n3C)cc1)S(C)(=O)=O
-4% | 10 | -4.4% | 0% | CC(C)[C@H](NC(N)=O)C(=O)NNC(=O)COc1cccc(C(F)(F)F)c1
-5% | nt | 4.2% | -2% | Cc1onc(-c2c(F)cccc2Cl)c1C(=O)NCCc1ccncc1
-1% | 0 | -13% | -4% | O=C(NCCN1CCOCC1)c1ccc(NC(=O)C2COc3ccccc3O2)cc1 (stereo unspecified)
nt | nt | 0.4% | -16% | CCN(CC(=O)Nc1c(F)cccc1F)C(=O)c1ccc2c(c1)S(=O)(=O)N=C1CCCCCN12
-24% | -2 | 4.7% | -6% | Cc1ccc(NC(=O)c2cc(S(=O)(=O)N3CCOCC3)ccc2F)c(C)c1
0% | 3 | -3.8% | 20% | Cc1ccc(C(=O)N/C(=C\c2cccnc2)c2nc3ccccc3[nH]2)cc1

# Quoted from the listing:
# Cc1ccc(CSc2nnc(CC(=O)Nc3ccc(C)cc3)n2C)cc1 – Rango-impB inh = 7.1%
# CCOC(=O)c1cnn2c(N)c(C#N)nnc12 – miR-21 reporter = 2%

# More entries follow:
miR-21 reporter | GLA inh pH 4.5 | Rango-impB inh | Rango release inh | molecule
nt | nt | -4.7% | 6% | CCCCn1c(N)c(N(CCOC)C(=O)CSc2nnc(-c3ccncc3)n2CCC)c(=O)[nH]c1=O
-48% | -9 | -0.7% | -8% | O=C(CSc1nncs1)NC(=O)Nc1ccc2c(c1)OCCO2
4% | -16 | -3.7% | 1% | C=CCC(NCc1ccccc1)c1ccc(Cl)cc1 (stereo unspecified)
-2% | nt | 5.8% | -6% | CCOc1ccc(N(CC(=O)Nc2ccc(OC)cc2)C2=NC3CS(=O)(=O)CC3S2)cc1 (stereo unspecified)
nt | nt | 1.2% | 35% | CCOC(=O)C(=O)Cc1nc(OCc2ccccc2)cc(OCc2ccccc2)n1
-5% | nt | ? | -8% | Cc1ccc(S(=O)(=O)c2cn(C)c3cc(N4CCOCC4)c(F)cc3c2=O)cc1
nt | nt | -3.3% | -13% | O=C(COc1coc(CN2CCc3ccccc32)cc1=O)Nc1cccc(F)c1
-1% | -3 | ? | -10% | COc1ccc(OCC(=O)N2CCc3c([nH]c4ccccc34)C2c2ccccn2)cc1 (stereo unspecified)
nt | nt | -1.0% | 0% | COc1ccc(CNC(=O)CCn2c(C)csc2=O)cc1
-47% | 14 | ? | -9% | Cc1cc(N2CCN(c3ccccc3F)CC2)nc2cc(O)ccc12
nt | nt | 0.2% | 1% | CN(CC(=O)Nc1ccccc1Cl)C(=O)C1CSC2(C)CCC(=O)N12 (stereo unspecified)
nt | nt | -1.2% | -5% | O=C(Nc1cccc(S(=O)(=O)N2CCOCC2)c1)c1ccc(=O)[nH]c1
0% | 1 | 0.4% | 15% | COc1ccc(NC(=O)c2cccc(Cn3cc(Br)c([N+](=O)[O-])n3)c2)c(C)c1
0% | 4 | 2.1% | 0% | Cc1c(NC(=O)CSc2nc3ccccc3[nH]2)c(=O)n(-c2ccccc2)n1C
-8% | nt | -0.1% | 5% | CCN(CCO)c1nc(N2CCCCC2)c2cnn(C)c2n1
-19% | 0 | -3.4% | 14% | Cc1cccc(NC(=O)Nc2ccccn2)c1C
-3% | -2 | 2.7% | 2% | Cc1noc(C)c1COC(=O)CCc1nc2ccccc2c(=O)[nH]1
nt | nt | -0.7% | 1% | O=C(Nn1cnnc1)c1ccc([N+](=O)[O-])cc1Cl
-4%&-6% | nt | -4.7% | -12% | Cc1c(C)n(C)c2ccc(C(=O)NCCCN3CCCCC3)cc12
-9% | -2 | 0.8% | 4% | CC(=O)c1cc(C(=O)Nc2ccccc2C(=O)O)oc1C
-22% | -2 | 7.1% | 3% | CCn1cc(C(=O)OCC(=O)c2cc(C)n(-c3ccccc3F)c2C)c(=O)c2ccc(C)nc21
-14% | -13 | -3.7% | -1% | O=C(Nc1ccc2c(c1)OCCO2)c1ccc(S(=O)(=O)N2CCCCC2)cc1
nt | nt | 3.2% | -4% | CCCn1nc(C(=O)Nc2cccc(S(=O)(=O)N(C)c3ccccc3)c2)c2ccccc2c1=O
30% | nt | -2.9% | -2% | COc1ccc(-c2cn[nH]c2-c2ccc(O)cc2O)cc1
-7% | 0 | 3.0% | 0% | CN(C)/C=N/c1sc2c(c1C(N)=O)CCCC2
-2% | 4 | 0.4% | 9% | O=C(O)CCN1C(=O)c2ccc(NC(=O)C(c3ccccc3)c3ccccc3)cc2C1=O
-5% | 4 | -1.8% | 27% | CC(C)(C)OC(=O)NCCc1nnc(SCC(N)=O)o1
-1% | -4 | -2.9% | -5% | CCNC(=S)N/N=C/c1ccc(OCC(=O)Nc2ccc(OC)cc2)c(OC)c1
-8% | -5 | -2.5% | -10% | CSc1ncccc1C(=O)OCc1ccc(C#N)cc1
1% | nt | -0.9% | 1% | O=C(CCC(=O)N1CCOc2ccccc21)NCCN1CCOCC1
-52% | -9 | 0.1% | 1% | Cc1nc(NC(=O)c2oc3ccccc3c2C)sc1C(=O)N(C)C
7% | -3 | 3.6% | 2% | O=C1C=C(Nc2ccccc2)CC(c2ccccc2)C1 (stereo unspecified)
nt | nt | -3.7% | 19% | COC(=O)C1=C[C@@H](C(=O)OC)[C@@H]2C3=C(C(=O)[C@]2(C)NC(=O)c2ccccc2)[C@H](C)n2c(=O)n(C)c(=O)n2[C@@H]3C1
1% | 2 | 2.5% | -7% | COc1ccccc1NC(=O)C1=C(C)Nc2nnnn2C1c1cccc(C)c1 (stereo unspecified)
7% | -3 | 0.8% | 2% | COc1ccc(Cl)cc1NC(=O)CSc1nnc(COc2ccccc2)n1C
-5% | nt | 0.1% | 1% | CCCCc1cc(=O)oc2cc(C)cc(OC(C)C(=O)NCC3CCC(C(=O)O)CC3)c12 (stereo unspecified)
nt | nt | 3.4% | 6% | CCCCn1c(=O)cc(C)n(-c2ccccc2)c1=O
-2% | -4 | -1.6% | 12% | O=C(COC(=O)[C@H](Cc1ccccc1)N1C(=O)c2ccccc2C1=O)Nc1ccc2c(c1)OCO2

# By substructure, those above with bromine (4)
miR-21 reporter | GLA inh pH 4.5 | Rango-impB inh | Rango release inh | molecule
-67% | 5 | 1.9% | 1% | CC1(C(=O)OCc2cc(=O)n3cc(Br)ccc3n2)CC1(Cl)Cl (stereo unspecified)
1% | nt | 3.8% | -4% | CC1CCCC(C)N1/N=C/c1ccccc1Br (stereo unspecified)
0% | nt | -2.7% | 1% | CNC(=O)c1cc(C(=O)c2ccc(Cl)cc2)c(Br)[nH]1
0% | 1 | 0.4% | 15% | COc1ccc(NC(=O)c2cccc(Cn3cc(Br)c([N+](=O)[O-])n3)c2)c(C)c1
